CtBP-E1A blk = CtBP/E1A binding inhibition. AlphaScreen GST-E1A/His-CtBP binding, 1536-well; stronger effect = lower value; control for the full effect not named in the record. hit rate 0.49% among 340,000. AID 651724. activity change, % (no concentration beside the values); in the data active means activity change below about -65%; inconclusive means about -30% to -65%; inactive means above about -30%; further: on the % scale 0 is the no-effect control and ±100 the full control effect; compound concentration not given in the record
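Homogeneous bead-based format: GST-tagged E1A captured on glutathione donor beads, His-tagged CtBP on nickel acceptor beads; compounds precede bead addition by 2 h at 37 °C.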
gsp antag = antagonizes gsp, the McCune-Albright syndrome mutation; gsp-mutant cells, cAMP HTRF, 30 min; control for the full effect not named in the record; Potency, µM (series often up to 76.9 µM), for the others: at the highest dose activity change, negative = inhibition, usual class: inhibitors; hit rate 0.4% among 340,000; active = falling curve of any shape with a large fitted effect; inconclusive = falling curve, mostly with a smaller effect; inactive = flat or rising curve; cell line not stated here;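 further: intracellular cAMP measured with PDE inhibitor Ro 20-1724 present during compound exposure; potency means the concentration at half of the fitted maximal effect; on the % scale 0 is the no-effect control and ±100 the full control effect; nearly all actives have a fitted effect of over 65% in size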
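Cells, 2000/well, grown 16–24 h in DMEM 10% FBS with 0.5 mg/ml G418, then compounds plus […] (300 uM addition stock), 30 min at 37C. cAMP read by HTRF (cAMP-d2 and anti-cAMP antibody-K in lysis buffer) after 30 min RT.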
D2 PAM = positive allosteric modulators of human D2 dopamine receptor; DiscoveRx D2 beta-arrestin cells, luminescence, 90 min; 100% = 57 uM dopamine signal; potentiation, % (concentration not given with the values); hit rate 0.23% among 360,000; AID 624464; active = potentiation of 50% or more; inconclusive = 30% to 50%; inactive = 30% or less;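 further: compound concentration not given in the record; tested on top of an EC20 dose of dopamine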
Target sequence (P14416 whole entry, looked up): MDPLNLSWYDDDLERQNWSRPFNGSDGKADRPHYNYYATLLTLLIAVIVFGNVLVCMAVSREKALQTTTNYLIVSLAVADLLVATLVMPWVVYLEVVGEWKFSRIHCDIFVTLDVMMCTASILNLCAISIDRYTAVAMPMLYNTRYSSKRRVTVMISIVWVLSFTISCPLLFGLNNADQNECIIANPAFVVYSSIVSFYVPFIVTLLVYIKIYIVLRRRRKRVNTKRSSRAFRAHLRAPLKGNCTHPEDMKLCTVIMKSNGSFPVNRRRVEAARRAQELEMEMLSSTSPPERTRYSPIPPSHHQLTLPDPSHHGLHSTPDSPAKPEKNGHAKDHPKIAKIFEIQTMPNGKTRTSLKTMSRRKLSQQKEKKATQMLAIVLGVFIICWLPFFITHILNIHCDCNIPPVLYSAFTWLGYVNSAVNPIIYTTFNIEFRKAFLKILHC
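PathHunter D2 cells, attached overnight at 37 deg C, received compound in DMSO plus dopamine at EC20 (50 nM final) for 90 min at 37 deg C. Beta-arrestin recruitment was read as luminescence after 1 h with detection reagent at ambient temperature.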
Six1-Eya2 inh = Six1/Eya2 interaction inhibition | hit rate 0.56% among 360,000 | AID 651725 | activity change, % (no concentration beside the values) | AlphaScreen GST-Six1/His-Eya2 binding, biochemical; stronger effect = lower value; control for the full effect not named in the record | Q15475+O00167; in the data active = activity change below about -65%; inconclusive = about -30% to -65%; inactive = above about -30%; further: on the % scale 0 is the no-effect control and ±100 the full control effect; compound concentration not given in the record
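GST-Six1 + His-Eya2 (5X stock: 250/500 nM); Tris pH 8.0, 300 mM NaCl, 0.05% BSA, 0.02% Tween 20; GSH donor/Ni acceptor beads; 1 h 37 °C dark; AlphaScreen readout.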
gsp ag = activates gsp, the McCune-Albright syndrome mutation | gsp mutant cells, cAMP HTRF, 30 min; control for the full effect not named in the record | Potency, µM (titrated, usually from 76.9 µM), inactives show top-dose activation (cAMP increase), actives largely listed as activators | hit rate 0.13% among 340,000; active = well fitted activation curve with a large enough effect; inconclusive = small, poorly fitted or top-dose-only effect, or another doubt; inactive = no such curve, though single readings can be large or run the other way; cell line not stated here;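 further: phosphodiesterase inhibitor Ro 20-1724 added with compounds to block cAMP breakdown; potency means the concentration at half of the fitted maximal effect; nearly all actives have a fitted effect of over 60% in size; about a fifth of the inactives were tested at one dose only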
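Cells stably selected in G418 were plated at 2000/well, grown 16-24 hr, then given compounds in DMSO with the PDE inhibitor […] (300 uM solution added) for 30 min at 37C; cAMP was read by HTRF.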
D2 ag = activates the human D2 dopamine receptor | activation, % (concentration not given with the values) | DiscoveRx PathHunter D2 beta-arrestin, luminescence, 90 min; 100% = 57 uM dopamine signal | AID 624465 | P14416 | hit rate 0.084% among 360,000; in the data active = activation above about 40%; inconclusive = about 15% to 40%; inactive = below about 15%; further: compound concentration not given in the record; the text of the record calls up to 30% inactive
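DiscoveRx PathHunter D2 beta-arrestin cells (2,100/well) attached overnight, then compound-stimulated 90 min at 37 C in HBSS/10 mM HEPES/0.1% Tween-20 buffer; beta-galactosidase complementation read by luminescence after 1 h at ambient temperature. Dopamine 57 uM final (EC100) as control.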
* hit, by the source's call; ? = inconclusive; / = no result given; [ ] = another dose, or the depositor's remark. Compounds were not picked by outcome, and some 1.4% of all compounds hit somewhere here.

entry	CtBP-E1A blk	D2 PAM	Six1-Eya2 inh	D2 ag	gsp antag	gsp ag	canonical_smiles
1	6	-4	-2	-5.5	12%	?	Cc1ccc(NC(=O)CNC(=O)c2ccc(C)o2)cc1
2	5	-7	-1	-3.8	/	-17%	Cc1nc(C(=O)O)cc([N+](=O)[O-])c1C
3	1	0	0	-4.3	-8%	8%	Cc1ccnc(NC(=O)Cn2c(=O)oc3cc(S(=O)(=O)N4CCCC4)ccc32)c1
4	2	8	-26	-0.8	?	20%	O=[N+]([O-])c1cc2oc3c(c2c(C=NCc2ccncc2)c1O)CCCC3
5	4	-7	-3	5.1	-35%	2%[15.4 µM]	COc1cccc(-c2nn(-c3ccccc3)cc2CN(C)Cc2ccno2)c1
6	7	-3	5	-5.3	/	/	COCCNC(=O)C1(C)CCN(C(=O)c2cc(C)nn2C(C)(C)C)C1 (stereo not drawn)
7	-7	-5	-2	1.2	-7%	?	COc1ccc(C(=O)CC(=O)C(=O)Nc2cc(C)ccc2C)cc1
8	5	-8	0	-2.7	-9%	-2%	Cn1c(SCC(=O)c2ccc(F)cc2)nc2cccnc21
9	1	-1	-4	1.9	-3%	-38%[inhibitor]	CCOC(=O)C1CCN(C(=O)c2ccc3c(c2)C(=O)N(c2ccccc2C)C3=O)CC1
10	2	-9	2	-2.3	3%	25%	CCc1nn(CCCC(=O)N2CCC(C)CC2)c(=O)c2cc3occc3n12
11	-2	-26	3	-1.0	1%	-2%	CCc1ccccc1N1CC(C(=O)O)CC1=O (stereo not drawn)
12	0	1	-1	-2.7	/	/	CC(=O)Oc1ccc(Cn2c(C)c(C(=O)NCCC#N)sc2=O)cc1

Next part:
entry	CtBP-E1A blk	D2 PAM	Six1-Eya2 inh	D2 ag	gsp antag	gsp ag	canonical_smiles
13	-4	-7	9	3.4	8%	15%	CC(Sc1nnc(-c2cccnc2)n1N)C(=O)NCCC1=CCCCC1 (stereo not drawn)
14	3	-26	-4	-2.3	9%	7%[15.4 µM]	O=c1[nH]c(=O)n(C2OC(CO)C(O)C2O)cc1N1CCOCC1 (stereo not drawn)
15	0	-1	25	-2.2	2%	?	Cc1cccn2c(=O)c3cc(C#N)c(=O)n(-c4c(C)n(C)n(-c5ccccc5)c4=O)c3nc12
16	5	-13	3	0.0	-21%	-87%[inhibitor]	N#CC1=C(c2ccccc2)/C(=C/c2ccccc2)OC1=O
17	-8	-13	-3	-2.7	-18%	23%[15.4 µM]	S=c1[nH]nc(COc2ccccc2)n1/N=C/c1cccc(Br)c1
18	-21	-15	-17	0.7	1%	-79%[inhibitor]	C=CCNc1nc(-c2ccc([N+](=O)[O-])cc2)cs1
19	-4	1	-11	1.7	-15%	?	O=c1cc(-c2ccccc2)oc2cc(O)cc(O)c12
20	-6	-6	10	-5.1	13%	24%	Cc1c(Cl)cccc1NC(=O)CCN1CCN(CCO)CC1
21	0	-34	14	-4.8	1%	18%	CC(Sc1nnc(-c2cccnc2)n1N)C(=O)Nc1ccc2c(c1)OCCO2 (stereo not drawn)
22	-13	-3	-7	-0.9	4%	-6%	Cc1ccc(NCC(=O)NNC2=NCCC2)c(C)c1
23	3	-8	-2	4.9	5%	-30%[inhibitor]	Cc1ccc(NCc2nc3ccccc3n2C)cc1
24	-7	0	11	-4.1	-40%	1%[15.4 µM]	O=[N+]([O-])c1cc(S(=O)(=O)NC2=NCCCCC2)ccc1Cl

4 entries already listed, sorted by number of heavy atoms, low to high:
entry	CtBP-E1A blk	D2 PAM	Six1-Eya2 inh	D2 ag	gsp antag	gsp ag	canonical_smiles
22	-13	-3	-7	-0.9	4%	-6%	Cc1ccc(NCC(=O)NNC2=NCCC2)c(C)c1
20	-6	-6	10	-5.1	13%	24%	Cc1c(Cl)cccc1NC(=O)CCN1CCN(CCO)CC1
13	-4	-7	9	3.4	8%	15%	CC(Sc1nnc(-c2cccnc2)n1N)C(=O)NCCC1=CCCCC1 (stereo not drawn)
21	0	-34	14	-4.8	1%	18%	CC(Sc1nnc(-c2cccnc2)n1N)C(=O)Nc1ccc2c(c1)OCCO2 (stereo not drawn)

Record cards, from the list above. Screens in order: CtBP-E1A blk, D2 PAM, Six1-Eya2 inh, D2 ag, gsp antag, gsp ag
Profile of CC(Sc1nnc(-c2cccnc2)n1N)C(=O)Nc1ccc2c(c1)OCCO2 (stereo not drawn) = 0, -34, 14, -4.8, 1%, 18%
Profile of Cc1c(Cl)cccc1NC(=O)CCN1CCN(CCO)CC1 = -6, -6, 10, -5.1, 13%, 24%
Profile of C=CCNc1nc(-c2ccc([N+](=O)[O-])cc2)cs1 = -21, -15, -17, 0.7, 1%, -79%[inhibitor]

Next part
entry	CtBP-E1A blk	D2 PAM	Six1-Eya2 inh	D2 ag	gsp antag	gsp ag	canonical_smiles
25	3	-6	1	-4.6	4%	12%	O=C(NCc1cccs1)C(=O)NCC1OCCCN1S(=O)(=O)c1ccccc1 (stereo not drawn)
26	13	-2	0	-4.9	-6%	32%	CCOc1ccc(Br)cc1CN(CC)CC
27	/	24	-2	?	-6%	-24%	O=C(NCC1CCCO1)c1ccc(NC(=O)c2ccc([N+](=O)[O-])cc2)cc1 (stereo not drawn)
28	5	-6	6	1.2	0%	?	COc1cc(-c2nc(=S)[nH][nH]2)cc(OC)c1OC
29	0	-8	3	-2.6	1%[15.4 µM]	22%	COC(=O)c1[nH]c2ccc(Cl)cc2c1NC(=O)CCN1CCOCC1
30	0	-25	18	-1.7	16%	-6%	CC(=O)NC1=NN(C(C)=O)C(C)(CS(=O)(=O)c2ccc3ccccc3c2)S1 (stereo not drawn)
31	/	25	0	-1.6	9%	3%	COc1cc(CNc2nnnn2C)cc(OC)c1OC
32	0	2	5	-2.7	5%	27%	O=C(Cc1ccc(Cl)cc1)NC1CC1
33	?	-9	?	0.6	-15%	1%	O=C(CSc1ncc(-c2ccccc2)n1-c1ccccc1)NCc1ccco1
34	4	-2	6	-0.8	4%	0%	CCC(CC)C(=O)Nc1ccc([N+](=O)[O-])cn1
35	21	0	19	0.2	6%	0%	Cc1ccn2cc(CNC(=O)c3cccs3)nc2c1
36	-2	3	8	-3.7	?	2%	COc1ccc(/C=C/c2nnc(NC(=O)CSc3ccc(Cl)cc3)s2)cc1

The listing continues.
entry	CtBP-E1A blk	D2 PAM	Six1-Eya2 inh	D2 ag	gsp antag	gsp ag	canonical_smiles
37	/	5	5	4.0	-4%	17%	COC(=O)c1sccc1NC(=O)CC1C(=O)NCCN1C(=O)Nc1ccc(C(F)(F)F)cc1 (stereo not drawn)
38	-8	4	-8	-0.2	-8%	-20%	CCN1C=CC(=C2C(=O)c3ccccc3C2=O)C=C1
39	6	0	-16	-4.7	/	/	OC(c1ccc(-c2ccccc2)cc1)c1ncc(-c2ccc(F)cc2)[nH]1 (stereo not drawn)
40	-28	-6	-3	-3.7	/	/	O=C(NCc1cccc(C(F)(F)F)c1)c1[nH]c(C(F)(F)F)nc1-c1ccccc1
41	-3	-39	2	-5.9	2%	-22%	CC(=O)Nc1ccc(NC(=O)CSC2=NS(=O)(=O)c3cc(Cl)ccc3N2)cc1
42	5	-9	11	-0.7	-19%	-73%[inhibitor]	COc1c(Cl)cc(-c2noc(C)c2C(=O)NCc2ccccc2)cc1Cl
43	-9	-2	-1	2.1	4%	-3%	Cc1ccc(NC(=O)CN2C(=O)N/C(=C/c3ccc4c(c3)OCCO4)C2=O)cc1
44	/	4	-3	-1.3	-6%	?	Cc1cc(C)nc(NS(=O)(=O)c2ccc(NC(=O)c3nn(-c4ccccc4)ccc3=O)cc2)n1
45	-1	-11	-19	-1.5	-9%	-4%[15.4 µM]	O=C(N/N=C\C=C\c1ccco1)C1COc2ccccc2O1 (stereo not drawn)
46	25	-4	24	-8.6	3%[15.4 µM]	-2%	COc1ccc(-c2nc(N3CCCCCC3)sc2C(=O)c2ccccc2)cc1
47	8	-6	-2	1.3	3%	4%	O=C(CCc1nnc(C2CCCCC2)o1)N1CCC(Oc2cccnc2)CC1
48	16	-5	6	-5.8	1%	7%[15.4 µM]	O=C(O)C(Cc1ccccc1)N1CCS(=O)(=O)CC1 (stereo not drawn)

Looked up above.
For D2 PAM, entry 41 is listed with -39
For gsp antag, entry 18 is listed with 1%
For CtBP-E1A blk, entry 38 is listed with -8
For gsp ag, entry 5 is listed with 2%[15.4 µM]
For CtBP-E1A blk, entry 14 is listed with 3
For D2 PAM, entry 23 is listed with -8

Further results
entry	CtBP-E1A blk	D2 PAM	Six1-Eya2 inh	D2 ag	gsp antag	gsp ag	canonical_smiles
49	0	-1	4	-5.2	/	/	CC(=O)NC(c1ccccc1)c1nc(-c2ccc(F)c(Cl)c2)cs1 (stereo not drawn)
50	-2	-7	?	2.1	-12%	12%	S=c1[nH]nc(-c2ccccn2)n1/N=C/c1ccc(-c2ccccc2Br)o1
51	-18	8	-18	-0.2	4%	?	CCN(Cc1nc2ccccc2c(=O)[nH]1)Cc1nc2cc(OC)c(OC)cc2c(=O)[nH]1
52	-4	3	-5	-2.7	-2%	0%	Cc1ccc(Cl)cc1NC(=O)c1cc(NC(=O)CCCC(=O)O)ccc1N1CCCCC1
53	-3	-9	8	-2.8	9%	1%[15.4 µM]	Cc1cc(C)nc(SCC(=O)NC2CCCC2)n1
54	/	-11	-9	-0.8	-21%	-17%	Cc1cc(C(F)(F)Cl)n2ncc(-c3ccccn3)c2n1
55	-2	-2	8	-1.5	-24%	?	CCN(CC)S(=O)(=O)c1ccc(C)c(NC(=S)N2CCN(c3ccccn3)CC2)c1
56	-3	21	6	-0.6	11%	0%	O=C(NCCCN1CCOCC1)C1CC(=O)N(C2CCCCC2)C1 (stereo not drawn)
57	-5	-8	-2	-0.7	-5%	0%	CCOC(=O)C1CCN(C2CCN(C(=O)c3oc4c(C)c(C)ccc4c3C)CC2)CC1
58	-3	-34	-18	-1.0	4%	26%	O=[N+]([O-])c1ccccc1S(=O)(=O)N1CCN(C2CCN(Cc3ccccc3)CC2)CC1
59	5	-9	-6	-7.1	-5%	-4%[15.4 µM]	Cc1cc(C)nc(Nc2ccccc2F)n1
60	9	-5	0	0.8	9%	-3%	CCC(=O)NCCCOc1ccccc1
